gsp ag: agonists of gsp mutant (McCune-Albright syndrome) | gsp mutant cells, cAMP HTRF, 30 min; control for the full effect not named in the record | AID 624287 | 0.13% of 340,000 active | Potency, µM (doses to about 76.9 µM), for inactives: at the top dose activation (cAMP increase), actives largely listed as activators; active = well fitted activation curve with a large enough effect; inconclusive = small, poorly fitted or top-dose-only effect, or another doubt; inactive = no such curve, though single readings can be large or run the other way; cell line not stated here;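 further: phosphodiesterase inhibitor Ro 20-1724 added with compounds to block cAMP breakdown; potency means the concentration at half of the fitted maximal effect; nearly all actives have a fitted effect of over 60% in size; about a fifth of the inactives were tested at one dose only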
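Cells in DMEM/10% FBS with G418 were pretreated with compounds in DMSO plus […] (300 uM stock) for 30 min at 37C. cAMP was measured by HTRF (cAMP-d2 plus anti-cAMP antibody-K) after 30 min at room temperature.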
Sfp PPTase inh: inhibitors of Bacillus subtilis Sfp phosphopantetheinyl transferase | Biochemical Sfp PPTase activity, qHTS | Potency, µM, inactives show max response, negative = inhibition, actives largely listed as inhibitors | 3.5% of 310,000 active | AID 1490; active means well fitted inhibition curve with a large enough effect; inconclusive means small, poorly fitted or top-dose-only effect, or another doubt; inactive means no such curve, though single readings can be large or run the other way;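 further: the enzyme is Sfp with the accession as filed and its product quenches rhodamine fluorescence; potency means the concentration at half of the fitted maximal effect; 0% = enzyme reaction without inhibitor and -100% = no enzyme wells; top concentration of the series not given in the record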
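With Hepes-Na pH 7.6 buffer containing 10 mM MgCl2, Sfp (15 nM) modified BHQ-2-YbbR (12.5 uM) using rhodamine-CoA (5 uM). Two reads 30 minutes apart at 525/598 nm yielded each well's rate.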
Menin-MLL FL inh: menin-MLL binding inhibition, fluorescein peptide | Fluorescence polarization, fluorescein-MLL peptide displacement from menin | FP activity change, % at 61.4 µM | 290,000 tested, under 10 active | AID 1766; inconclusive = falling polarisation curve, or a change in total fluorescence; inactive = total fluorescence flat and polarisation flat or rising; no compound was filed as active; the % refers to the polarisation; negative = inhibition;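 further: % of control where 0% means no effect; inhibitors lower the polarisation; unlabelled MLL peptide was the positive control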
gsp antagonist: antagonizes gsp, the McCune-Albright syndrome mutation | 0.4% of 340,000 active | Potency, µM (titrated, usually from 76.9 µM), for the others: top-dose activity change, negative = inhibition, usual class: inhibitors | gsp-mutant cells, cAMP HTRF, 30 min; control for the full effect not named in the record | AID 624288; active = falling curve of any shape with a large fitted effect; inconclusive = falling curve, mostly with a smaller effect; inactive = flat or rising curve; cell line not stated here;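 further: intracellular cAMP measured with PDE inhibitor Ro 20-1724 present during compound exposure; potency means the concentration at half of the fitted maximal effect; on the % scale 0 is the no-effect control and ±100 the full control effect; nearly all actives have a fitted effect of over 65% in size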
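Cells, 2000/well, grown 16–24 h in DMEM 10% FBS with 0.5 mg/ml G418, then compounds plus […] (300 uM addition stock), 30 min at 37C. cAMP read by HTRF (cAMP-d2 and anti-cAMP antibody-K in lysis buffer) after 30 min RT.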
PINK1 modulator: modulators of PINK1 expression; PINK1 immunofluorescence, high-content cytometry, 24 h; Potency, µM (doses to about 76.6 µM), without a hit: top-dose activation (PINK1 increase), most hits filed as activators; 0.2% of 410,000 active; AID 624263; active = well fitted activation curve with a large enough effect; inconclusive = small, poorly fitted or top-dose-only effect; inactive = flat fitted curve, though single readings scatter; cell line not stated here;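 further: potency means the concentration at half of the fitted maximal effect; % of control where 0% means no effect; nearly all actives have a fitted effect of over 65% in size; a mitochondrial uncoupler was the plate control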
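Measures PINK1 amount and localization on or inside mitochondria by immunofluorescence. Stable cells get compounds at 5 concentrations for 24 hours before fixation and staining; CCCP controls included.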
ClpP mod: qHTS Assay for Activators of ClpP | 1.9% of 340,000 active | purified B. subtilis ClpP, FRET peptide cleavage, 20 min | Potency, µM (doses to about 57.5 µM), for the others: at the highest dose activity change, negative = active | AID 651965, 2013; active = well fitted falling curve with a large enough effect; inconclusive = small, poorly fitted or top-dose-only effect; inactive = no such curve, though single readings can be large or run the other way; further: potency means the concentration at half of the fitted maximal effect; the source files actives as falling curves though it sought activators and does not explain the sign; nearly all actives have a fitted effect of over 65% in size; many hits overshoot -100%
Target sequence (P80244 whole entry, looked up): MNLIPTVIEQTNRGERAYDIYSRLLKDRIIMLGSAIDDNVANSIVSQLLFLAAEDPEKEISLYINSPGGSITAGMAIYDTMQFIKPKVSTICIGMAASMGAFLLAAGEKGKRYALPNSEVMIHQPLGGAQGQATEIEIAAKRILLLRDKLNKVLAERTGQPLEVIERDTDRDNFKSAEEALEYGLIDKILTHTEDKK
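Purified B. subtilis ClpP, 10 microg/mL final in Tris/HCl pH8 with KCl, BSA, glycerol and Tween-20, cleaved an Abz/nitrotyrosine-quenched decapeptide. Fluorescence (ex 320, em 430) was read at 0 and 20 min at room temperature. Delta was normalized to 5.8 microM ADEP and DMSO/no-enzyme controls.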
D2 ag: human D2 receptor agonism in beta-arrestin assay; 0.084% of 360,000 active; AID 624465; DiscoveRx PathHunter D2 beta-arrestin, luminescence, 90 min; 100% = 57 uM dopamine signal; activation, % (test concentration not listed); P14416; in the data active = activation above about 40%; inconclusive = about 15% to 40%; inactive = below about 15%; further: compound concentration not given in the record; the text of the record calls up to 30% inactive
Target sequence (P14416 whole entry, looked up): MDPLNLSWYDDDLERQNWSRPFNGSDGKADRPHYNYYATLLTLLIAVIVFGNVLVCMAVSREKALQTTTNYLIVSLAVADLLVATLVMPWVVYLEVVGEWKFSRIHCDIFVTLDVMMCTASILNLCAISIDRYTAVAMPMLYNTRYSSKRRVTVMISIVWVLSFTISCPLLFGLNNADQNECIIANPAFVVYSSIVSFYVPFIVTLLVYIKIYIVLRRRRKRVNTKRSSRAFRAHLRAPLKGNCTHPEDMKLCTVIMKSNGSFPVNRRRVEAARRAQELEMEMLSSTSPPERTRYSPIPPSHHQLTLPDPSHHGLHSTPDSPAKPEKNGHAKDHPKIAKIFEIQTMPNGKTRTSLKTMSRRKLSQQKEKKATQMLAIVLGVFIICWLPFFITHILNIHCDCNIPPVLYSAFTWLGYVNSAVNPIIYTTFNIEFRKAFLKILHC
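DiscoveRx PathHunter D2 beta-arrestin cells (2,100/well) attached overnight, then compound-stimulated 90 min at 37 C in HBSS/10 mM HEPES/0.1% Tween-20 buffer; beta-galactosidase complementation read by luminescence after 1 h at ambient temperature. Dopamine 57 uM final (EC100) as control.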
An asterisk follows results filed as active; ? = inconclusive; / = not tested or not shown; & = joins results of further samples; [ ] = another dose, or the depositor's remark.

SMILES	gsp ag	Sfp PPTase inh	Menin-MLL FL inh	gsp antagonist	PINK1 modulator	ClpP mod	D2 ag
COC(=O)c1ccc(COC(=O)[C@@H]2CC(O)CN2S(=O)(=O)c2ccccc2[N+](=O)[O-])cc1 (some centres undefined)	-24%	/	/	-1%	3.9%	-0.8%	1.5
CC(C)OC(=O)Cn1c(-c2ccccc2)c(-c2ccccc2)nnc1=O	-2%	4%	-6.9	-2%	0.4%	-1.2%	-1.4
Cc1ccc(-c2nnn(CC(=O)N(CCO)C(C(=O)NC3CCCC3)c3ccc(F)cc3)n2)o1 (centres undefined)	-5%[15.4 µM]	11%	-1.7	1%	0.5%	/	-6.6
COC(=O)c1ccc(NC(=S)N2CCN(Cc3cccc(C)c3)CC2)cc1	-7%	7%	0.4	-1%	16%[38.3 µM]	-1.1%	-2.3
O=C(COC(=O)C1CCC1)NC(=O)c1ccccc1	24%[15.4 µM]	/	/	-7%	-0.6%	0.5%	-9.2
Cc1ccccc1OCCSc1nc2ccccc2n1CCC(=O)O	22%	0%	-4.1	?	5.7%	1.4%	-4.2
CC(NC(=O)CSc1ncccn1)c1ccc(Cl)cc1Cl (centres undefined)	-21%	14%	-2.6	-4%	-0.4%	/	0.2
Nc1nc2ccccc2n1CCOc1ccc(F)cc1	-6%	-2%	-0.1	13%	1.1%	0.5%	0.5
O=S(=O)(Nc1nccs1)c1cc(Cl)ccc1Cl	-15%	-3%	17	-2%	0.9%	0.3%	0.4
c1ccc2c(c1)COc1c3cc4c(cc3nn1-2)OCO4	-40%[inhibitor]	/	/	/	1.4%	2.4%	-1.3
CC(=O)Nc1cc(NC(C)=O)cc(-c2nc3ccccc3[nH]2)c1	24%[15.4 µM]	12%	-1.2	/	1.4%&-0.7%	-11%	1.5
O=C(NNC(=O)C1CCN(Cc2ccccc2)CC1)c1cccc(Cl)c1	-25%	7%	0.9	5%	1.9%	-2.7%	-3.3
O=C(N/N=C/c1cc2cc3c(cc2nc1Cl)OCCO3)c1ccccc1O	-1%	-18%	/	-20%	4.5%	0.1%	-3.0
CC(=O)C1=C(C)NC(SCC(=O)c2cc(Cl)ccc2Cl)=C(C#N)C1c1ccco1 (centres undefined)	21%	35µM*	?	?	3.2%[38.3 µM]	-4.9%	-2.0
CN(C)S(=O)(=O)c1cccc(C(=O)Nc2ccccc2N2CCCCC2)c1	21%[15.4 µM]	-6%	0.3	-11%	0.5%	/	1.4
Cc1c(Cl)c([N+](=O)[O-])nn1CCCC(=O)NC(C)c1ccccc1 (centres undefined)	1%	5%	1.0	8%	1.3%	-3.0%	-5.4
CCOC(=O)CSc1ncc(OC)c(Sc2ccc(OC)cc2)n1	21%	17%	-0.1	?	-1.8%[38.3 µM]	0.2%	-1.3
Nn1cnnc1SCC(=O)Nc1ccc2c(c1)OCO2	29%	12%	-2.6	1%	1.1%	/	3.4
COC(=O)[C@@H]1C[C@H]2CC[C@H](O)C[C@H]2N1Cc1ccc(C)s1	/	12%&0%	2.0&0.9	8%	1.0%	3.8%	1.8
CCOC(=O)c1c(N)sc2c(NC(C)=O)cccc12	-50%[inhibitor]	8%	6.4	11%	-0.9%	1.9%	-7.1
Cc1cc(=O)[nH]c(N/N=C/c2ccc(OC(=O)c3cccnc3)cc2)n1	27%[15.4 µM]	2%	1.0	5%	-0.3%	/	-1.1
Cc1ccccc1OCC(=O)NC(=S)Nc1cccc2cc(O)ccc12	?	0%	/	-3%	-1.8%	0.0%	-1.6
CC(=O)N1CC(C)c2scc(C)[n+]2-c2ccccc21 (centres undefined)	3%[15.4 µM]	-1%	-0.5	9%	-2.0%	-3.2%	-4.8
CC(=O)Nc1cccc(/C(C)=N/NC(=O)c2cccc(S(=O)(=O)N3CCCC3)c2)c1	-30%	/	/	/	0.8%	1.4%	-2.9
Cc1occc1C(=O)N1CCN(S(C)(=O)=O)CC1	-2%	22%	2.6	3%	-2.2%[38.3 µM]	0.4%	0.2
COc1ccc(-n2c(C)nc(N)c2C(=O)c2ccccc2)cc1	23%[15.4 µM]	19%	1.8	-6%	-1.1%	/	-4.4
Cn1c(=O)[nH]c(=O)c2c1nc(N)n2Cc1ccccc1	19%	18%	-7.7	15%	6.0%	/	3.4
O=C1c2cccc(NCCNCCO)c2C(=O)c2cccc(NCCNCCO)c21	7%	/	/	?	-1.6%	-4.7%	-4.1
CCn1nc(C)c(/C=N\NC(=O)c2ccc3c(c2)OCO3)c1C	5%	-9%	-7.7	7%	-0.3%	-0.9%	-1.3
CCc1ccc(Nc2cnn(-c3nc4ccccc4s3)c(=O)c2Cl)cc1	-2%	-9%	-0.3	?	3.1%	-3.6%	-6.1
Nc1cccnc1Sc1ccc(Cl)cc1	-5%	5%	-1.6	-4%	/	?	0.7
COc1cc(NC(=O)CSc2ncnc3sc4c(c23)CCC(C)C4)c(C(=O)O)cc1OC (centres undefined)	25%	45µM*	-0.4	-3%	-1.3%	-4.6%	-6.1
Cn1cnc2nc[nH]c2c1=S	-56%[inhibitor]	/	/	2%	1.1%	-2.0%	-2.4
CC(C)CC1c2[nH]c3ccccc3c2CCN1C(=O)CCC(=O)N(C)C (centres undefined)	4%[15.4 µM]	1%	-3.4	-14%	2.0%	/	-2.3
COC1OC2COC(c3ccccc3)OC2C(O)C1N (centres undefined)	17%	/	/	2%	2.5%	/	-2.3
O=C(CCCN1C(=O)c2cccc3cccc(c23)C1=O)NCc1cccnc1	23%[15.4 µM]	0%	-4.6	-16%	0.6%	-1.8%	-1.4
CCc1nonc1NC(=O)c1oc2ccccc2c1C	0%	12%	/	-2%	2.3%&6.1%	-10%&-7.1%	5.8
COc1ccc(NC(=O)CSc2nnc(NC(=O)c3ccco3)s2)cc1OC	13%	-7%	/	-14%	-0.6%	-3.3%	-0.6
Cc1ccc(NC(=O)CN2CCc3cc4c(cc3C2C)OCCCO4)cc1 (centres undefined)	-6%	1%	-0.3	-23%	1.4%	-3.3%	0.7
CCSC1=C(C#N)C(c2ccccc2Cl)CC(=O)N1 (centres undefined)	?	-3%	3.1	6%	0.2%	1.5%	-1.0
COc1cccc(NC(=O)Nc2cc(Cl)ccc2C)c1	-1%[15.4 µM]	6%	-1.3	-9%	3.7%	/	-1.5
CC(C)(C)c1ccc(C(=O)NCCCNC(=O)c2ccco2)cc1	-9%[15.4 µM]	10%	1.7	3%	1.7%	-2.0%	-2.6
Cc1ccc(C(=O)N(Nc2nc3ccccc3s2)C(=O)c2ccc(C)cc2)cc1	-1%[15.4 µM]	-11%	12	0%	8.6%	-1.4%	-3.4
O=C(Cc1ccc(Br)cc1)N1CCCC1	3%[15.4 µM]	4%	2.8	-3%	0.4%	-0.5%	0.7
COc1ccc(S(=O)(=O)N/N=C(/C)c2ccc(Cl)cc2)cc1	-33%[inhibitor]	16%	2.3	-22%	8.6%[38.3 µM]	-1.7%	-0.8
CCOC(=O)c1c(NC(=O)CN2C(=O)C(=O)N(C(C)C)C2=O)sc(C)c1CC	5%	/	/	?	0.6%	5.2%	2.6
O=c1c2ccc(Cl)cc2nc(-c2ccc([N+](=O)[O-])cc2)n1O	4%	3%	-4.8	-22%	9.0%	/	-0.6
CCCCNCCOCCOc1ccc(Cl)cc1Br	2%	16%	4.5	7%	-2.4%	-0.9%	-8.1
COc1ccccc1NC(=S)NC1CCCCCC1	12%[15.4 µM]	13%	0.0	8%	2.9%	-2.8%	-5.2
CCOC(=O)c1c(NC(=O)CSc2nncn2C)sc(C)c1C	-45%[inhibitor]	10%	0.2	0%	0.4%	-3.6%	-2.9
(more compounds)
SMILES	gsp ag	Sfp PPTase inh	Menin-MLL FL inh	gsp antagonist	PINK1 modulator	ClpP mod	D2 ag
Cc1ccc(NCCN(C)C)c2c(=O)c3cc(O)ccc3sc12	-14%	/	/	-2%	-4.2%	-1.1%	-5.1
CCc1ccc(NC(=O)c2cc(-c3ccc4c(c3)OCO4)on2)cc1	0%	16%	-0.8	7%	3.4%	/	-4.2
COc1cc2c(cc1OC)CN(C(=O)Cc1ccccc1)CC2	-8%	3%	-23	-3%	3.3%	/	4.2
Cc1c(C(=O)N(Cc2ccc(Cl)cc2)C2CCS(=O)(=O)C2)oc2ccccc12 (centres undefined)	3%[15.4 µM]	15%	6.9	-22%	2.2%	0.6%	-3.5
Nc1nnnn1/N=C/c1cc(Cl)cc(Cl)c1OCc1ccc(Cl)cc1Cl	1%	1%	7.0	2%	1.3%	16%	-3.2
Cc1cccc(C)c1NC(=O)C1(C)CCC(=O)N1CCOc1ccccc1 (centres undefined)	/	/	/	/	0.1%	-0.3%	-4.3
COC(=O)c1ccc(Cn2nc(C)cc2C)cc1	-6%	7%	-1.1	1%	0.4%	-1.6%	-0.5
COc1ccc(S(=O)(=O)N2CCC(C(=O)N[C@@H](C)C(=O)NCc3cccc(OC)c3)CC2)cc1	22%	7%	/	13%	-0.3%	-1.3%	6.6
O=C1c2ccccc2C(=O)N1c1nccs1	-11%	/	/	-11%	0.4%	/	-4.4
Nc1cc(=O)nc(SCC(=O)N2CCN(c3ccccc3)CC2)n1-c1ccccc1	19%	12%	/	-8%	-3.0%	1.1%	-0.2
CC(C)CCN1CC(O)=C(c2nc(-c3ccc(Cl)cc3)cs2)C1=N	7%	16%	0.1	-1%	12%	2.6%	-0.3
COc1cc(CN2CCN(Cc3ccc([N+](=O)[O-])cc3)CC2)c([N+](=O)[O-])cc1OC	6%	-28%	-0.5	-4%	0.7%	-1.3%	-1.4
COC(=O)c1cccc(N(C(=O)CNC(=O)c2cccs2)C(C(=O)NCC2CCCO2)c2ccc(OC)c(OC)c2)c1 (centres undefined)	-3%	18%	-0.2	2%	0.3%	/	2.8
